Assay outcomes (PubChem)
ugtP null kill: kills S. aureus RN4220 lacking UgtP | actives 0.54% (n = 330,000) | S. aureus RN4220 ugtP deletion, OD600 growth, 16 h; some inactives read as strong as hits | growth inhibition, % (no concentration beside the values);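 active means z-score under -3 and OD600 up to 0.15 on both plates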;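 further: plate controls were untreated wells for no effect and antibiotic for full effect; wells of about 80 µL received 100 nL stock; the first replicate is given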
PrP UTR inh: inhibition of PrP 5' UTR reporter expression; actives 0.35% (n = 340,000); inhibition, % (concentration not given with the values); cell-based PrP 5' UTR mRNA reporter, plate reader;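 active means every replicate at 50% or more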;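 further: 0 = median of the neutral control wells; tested in H4 reporter cells; numbers are from one replicate; inactives centre near -14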
RN4220 kill: kills Staphylococcus aureus RN4220. S. aureus RN4220 growth, OD600, 16 h. inhibition, % (no concentration beside the values). actives 0.33% (n = 330,000). AID 1259311;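 active means z-score of -3 or lower and OD600 up to 0.18 on both plates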;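 further: plate controls were untreated cells for no effect and reference antibiotic for full effect; stock transfer was 100 nL into about 80 µL; one replicate is shown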
Mtb hypoxia inh: reduces hypoxia-regulated biosensor signal in M. tuberculosis. M. tuberculosis hypoxia-regulated fluorescent reporter, fluorescence. fluorescence inhibition, % (test concentration not listed). actives 0.1% (n = 300,000). AID 1159583;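 active means 35 to 45% if threefold the growth effect, above 45% if 1.5-fold the growth effect; inactive means the rest, general growth blockers included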;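 further: wells of about 50 µL received 100 nL stock; 0% = vehicle wells and 100% = reference inhibitor wells; whole bacteria with a GFP reporter of the hypoxia response; strong numbers were not always called active; many hits fall short of the cut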
Bead autofluor: counter-screen for toxin protease inhibitors: compound fluorescence. actives 3.1% (n = 360,000). fluorescence intensity (concentration not given with the values). compound autofluorescence counterscreen, microsphere flow cytometry; active compounds read high;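 active means at least 3 SD above the mean of all compounds, about 16000 in these data; inconclusive means too few beads counted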;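 further: 100 nL of 1 mM stock went into each well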
BJeLR viability: kills HRASV12-expressing BJeLR cells; AID 1554; BJeLR (HRASV12) viability, CellTiter-Glo ATP luminescence, 48 h; reference of the scale not given here; actives 0.17% (n = 300,000); inhibition, % (test concentration not listed);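 active means replicate mean above 50%; inconclusive means above 50% but judged a plate artefact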;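 further: 50 nL library stock added to about 25 µL; numbers are from one replicate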
Mtb hypoxia inh growth: also measured in Mtb hypoxia inh; calls as there; growth inhibition, %; measured here: M. tuberculosis growth (absorbance);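 0% = vehicle and 100% = reference antibiotic; read after six days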
The depositor's hits bear a star; ? = inconclusive; nt = not tested or not shown.

SMILES | ugtP null kill | PrP UTR inh | RN4220 kill | Mtb hypoxia inh | Mtb hypoxia inh growth | Bead autofluor | BJeLR viability
O=C(O)CCCCCNC(=O)c1ccc(Br)cc1 | 1 | -10 | 3.2 | 2 | 7 | ? | -27
COc1ccc(CNC(=O)CCc2c[nH]c3ccccc23)cc1 | 11 | -28 | 4.4 | 1 | 2 | 4079 | -8
Cc1cc2c(cc1C)C(c1cccc([N+](=O)[O-])c1)CC(=O)N2 (stereo unspecified) | -8 | -4 | -0.4 | -2 | -1 | 2344 | 4
O=C(O)c1ccc(CNCc2c(Cl)cccc2Cl)cc1 | 3 | nt | 8.8 | 3 | 1 | 11333 | -20
Cc1nc2scc(C)n2c(=O)c1S(=O)(=O)Nc1ccc(N2CCOCC2)c(Cl)c1 | 1 | 1 | 1.3 | -8 | 12 | 5528 | 15
Cc1ccc(Cn2c(CCNc3nc(-c4ccc(Cl)c([N+](=O)[O-])c4)cs3)nc3cc(Cl)c(Cl)cc32)cc1 | -1 | -31 | -6.9 | -4 | 13 | 3736 | 0
Brc1ccc(COn2ccnc2)cc1 | -10 | -24 | -2.2 | 1 | -22 | 3422 | 3
C/C(=N\OC(=O)C1CC1)C1CC1c1ccc(F)cc1 (stereo unspecified) | nt | -18 | nt | nt | nt | 2054 | 5
CC(C)(C)c1csc(NC(=O)c2ccncc2)n1 | -8 | -30 | 0.0 | -3 | 9 | 3980 | 2
CCCOC(=O)c1c(N)n(Cc2cccs2)c2nc3ccccc3nc12 | -14 | -34 | -2.0 | 5 | 9 | 9027 | -14
COc1ccc(CCn2c(=N)c(C(=O)NCCN3CCOCC3)cc3c(=O)n4ccccc4nc32)cc1OC | 7 | -9 | 4.0 | 3 | 7 | 5506 | -3
Cn1c(=O)c([N+](=O)[O-])c(-n2cnc3ccccc32)c2ccccc21 | 5 | -1 | 3.6 | 2 | 6 | nt | 11
O=C(CCOc1ccccc1F)N1CCN(c2ccccc2O)CC1 | 8 | -29 | -1.9 | -4 | -7 | 2761 | -10
O=C(CNC(=O)N1CC(=O)Nc2ccccc21)Nc1ccccc1F | 1 | -1 | -0.5 | -4 | -4 | 5812 | -3
O=C(N/N=C/c1ccccc1Cl)c1ccncc1 | nt | -18 | nt | nt | nt | 2937 | -3
Cc1ccc(CCC(=O)Nc2cc(Cl)ccc2Cl)o1 | -3 | -3 | 4.6 | 2 | 13 | 3958 | -3
Cc1cc(=O)[nH]c(N/N=C/c2ccco2)n1 | nt | -24 | nt | nt | nt | 9597 | -2
O=C(Nc1cccnc1)c1ccc(Cl)c(S(=O)(=O)N2CCCCCC2)c1 | 7 | -34 | 4.3 | 12 | 8 | 11393 | 12
Cc1nn(C(C)C(=O)NCCCN2CCCCCC2)c(=O)c2cc3sccc3n12 (stereo unspecified) | 6 | -12 | -3.3 | 14 | 3 | 5068 | 14
Cc1cc(C)nc(SCCn2c(N(C)Cc3ccccc3)nc3c2c(=O)n(C)c(=O)n3C)n1 | -2 | -11 | 4.8 | 5 | 5 | 10024 | -8
CC1(C)Cc2c(c(N3CCOCC3)nc3snc(N)c23)CO1 | 4 | -4 | 1.6 | nt | nt | 4694 | 16
Cc1cccc(N(Cc2ccccc2)C(=O)CN2C(=O)NC3(CCCCC3C)C2=O)c1 (stereo unspecified) | 6 | -32 | -0.1 | 3 | -1 | 4100 | nt
CCC(=O)/C=C1/Sc2ccccc2N1CC | -9 | -34 | 2.8 | nt | nt | 4656 | -11
COc1ccc2cnn(-c3ccc(C)cc3)c(=O)c2c1OC | 1 | -54 | -2.7 | nt | nt | 5137 | 2
Cc1cc(S(=O)(=O)N2CCCC(N(C)CCc3ccccn3)C2)c(C)cc1Cl (stereo unspecified) | -2 | -2 | -0.5 | -1 | 8 | 6556 | 5
COc1ccc(-n2c(SC)nc(O)c(Cc3ccccc3)c2=O)cc1 | 15 | -16 | 1.8 | 6 | 0 | 22787* | 6
CC(C)NC(=O)Nc1cccc2c1OC(CN(C)C(=O)NC1CCCCC1)C(C)CN(C(C)CO)C2=O (stereo unspecified) | 2 | nt | 7.3 | -3 | 9 | nt | nt
C/C(=N/NC(=O)c1cc2ccccc2cc1O)c1ccco1 | nt | -51 | nt | nt | nt | ? | 7
Cc1ccccc1CN1CCCOCCS1(=O)=O | -11 | -37 | 5.6 | 5 | 13 | 3438 | 7
CN(CC(=O)Nc1ccc(F)cc1)C(=O)COc1ccc(C(=O)c2ccccc2)cc1 | -2 | -9 | 1.6 | 4 | 7 | 2540 | 1
CCc1cccc(NC(=O)CCc2c(C)nn(-c3ccc(N4CCCCC4)nn3)c2C)c1 | 10 | -35 | -1.8 | -3 | 4 | 5146 | 13
CC(C)OC(=O)CSc1nnc(CNc2ccc(Cl)cc2)n1C | 7 | -16 | 5.7 | 7 | 9 | 4665 | 4
CCOc1cc(NC(=O)c2ccccc2[N+](=O)[O-])c(OCC)cc1NC(=O)CC(C)C | -6 | -17 | 6.3 | -6 | -2 | 9800 | -3
Cc1ccc2cc(CCNC(=O)c3ccc(S(=O)(=O)N4CCOCC4)cc3)c(=O)[nH]c2c1C | -4 | -17 | -0.5 | -2 | 4 | ? | 8
Cn1nc(-c2ccc(C(=O)O)cc2)c2ccccc2c1=O | -3 | -10 | 4.0 | -10 | 11 | 10560 | 3
CC(=O)c1c(COC(=O)c2ccncc2)nc2ccccc2[n+]1[O-] | -2 | -22 | 5.8 | nt | nt | 4508 | 2
C(=NNc1nc2ccccc2[nH]1)c1c[nH]c2ccccc12 | -18 | nt | 15 | -10 | 1 | nt | nt
CC(CCc1ccccc1)NC(=O)c1ccccc1 (stereo unspecified) | 2 | -16 | 0.5 | nt | nt | 4365 | 1
COc1cc(C2NC(=O)NC(C)=C2C(=O)OC2CCCC(C)C2)cc(Br)c1O (stereo unspecified) | -5 | -38 | 7.6 | -10 | -3 | 4544 | 3
Cc1ccc(-c2csc(N(CCO)CCCn3c(C(F)(F)F)nc4cc(C(F)(F)F)ccc43)n2)cc1 | nt | 8 | nt | nt | nt | 3640 | -1

An excerpt from above with just PrP UTR inh.
SMILES,PrP UTR inh
Cc1cc(S(=O)(=O)N2CCCC(N(C)CCc3ccccn3)C2)c(C)cc1Cl (stereo unspecified),-2
COc1ccc(-n2c(SC)nc(O)c(Cc3ccccc3)c2=O)cc1,-16

One compound at a time, from the list above:
Shown for CCOc1cc(NC(=O)c2ccccc2[N+](=O)[O-])c(OCC)cc1NC(=O)CC(C)C = ugtP null kill = -6; PrP UTR inh = -17; RN4220 kill = 6.3; Mtb hypoxia inh = -6; Mtb hypoxia inh growth = -2; Bead autofluor = 9800; BJeLR viability = -3
Shown for C/C(=N/NC(=O)c1cc2ccccc2cc1O)c1ccco1 = ugtP null kill = nt; PrP UTR inh = -51; RN4220 kill = nt; Mtb hypoxia inh = nt; Mtb hypoxia inh growth = nt; Bead autofluor = ?; BJeLR viability = 7

Later entries:
SMILES | ugtP null kill | PrP UTR inh | RN4220 kill | Mtb hypoxia inh | Mtb hypoxia inh growth | Bead autofluor | BJeLR viability
Cc1sc2ncnc(OCC(=O)NC(C)C)c2c1C | 8 | -2 | 4.4 | nt | nt | 3560 | -7
COc1ccc(CC(=O)N/N=C(\C)CC(=O)Nc2cccc(F)c2)cc1 | nt | -21 | nt | nt | nt | 5482 | -6
CCCCCN(C(=O)CCC(=O)OCc1ccc(C(C)C)cc1)c1c(N)n(CCCC)c(=O)[nH]c1=O | 1 | -12 | -1.6 | -8 | 0 | 6577 | 1
C/C(CC(=O)Nc1ccc2c(c1)OCCO2)=N\NC(=O)c1ccccc1F | nt | -25 | nt | nt | nt | 4377 | 0
O=C(NCC1CCCN(C(=O)NCc2ccccc2)C1)c1ccc2c(c1)OCO2 (stereo unspecified) | 6 | -43 | -1.5 | 1 | 8 | 4272 | -6
COc1ccc(C(=O)Oc2cc3c4c(c2)C(C)=CC(C)(C)N4C(=O)C3=O)cc1OC | 6 | -7 | 6.5 | 20 | 9 | 1938 | -7
Cc1[nH]c2ccccc2c1C(=O)CSc1nccc(=O)[nH]1 | 7 | -26 | 6.5 | 6 | 11 | nt | -11
Cc1c(Cl)cccc1NC(=O)CNC(=O)c1ccco1 | 7 | -30 | 0.9 | 10 | 5 | nt | 10
COC(=O)C1=C(c2cccc(C#N)c2)CC2CCC1N2C(=O)N1CCOCC1 (stereo unspecified) | 3 | nt | 6.1 | 11 | -2 | nt | nt
COCC(=O)N1CCC(Oc2ccc(C(=O)NCCc3ncccc3C)cc2)CC1 | -1 | -7 | -0.2 | -4 | 9 | 5346 | 0
Cc1ccc(NC(=O)N(CCC#N)Cc2ccccc2)cc1 | 5 | -19 | 0.1 | -1 | 4 | 5676 | -2
COc1ccc(-c2c(NC(=O)c3ccco3)oc3ccc(Cl)cc3c2=O)cc1 | -5 | -8 | -0.9 | -3 | 8 | 6279 | -10
Fc1ccc(Cn2cc(C(=S)N3CCOCC3)c3ccccc32)cc1 | 12 | -16 | -4.0 | 11 | -7 | 4582 | -13
Cc1ccccc1C(=O)N1CC1C (stereo unspecified) | 4 | -9 | 9.6 | 6 | 3 | 3601 | nt
O=c1[nH]c(NCCCO)nc2c1C1(CCCC1)Cc1ccccc1-2 | -7 | -10 | 2.7 | 2 | 6 | 8951 | 20
COc1ccc(CCC2(C)NC(=O)N(C(C)C(=O)Nc3ccccc3F)C2=O)cc1 (stereo unspecified) | 4 | -18 | 3.4 | 5 | 1 | 4009 | nt
CN(C)C(=O)COC(=O)c1cccc(S(=O)(=O)Nc2ccc(OCc3ccccc3)cc2)c1 | 0 | -13 | -0.1 | 9 | -4 | ? | 4
Cc1cccc(N2C(=O)N3[C@H](c4ccc(F)cc4)[C@@H]4C(=O)N(C5CCCCC5)C(=O)[C@@H]4[C@]3(Cc3ccc(Cl)cc3)C2=O)c1 | nt | -16 | nt | nt | nt | 3701 | -3
COc1ccccc1CN1CCCC(C(=O)c2ccccc2SC)C1 (stereo unspecified) | 1 | -77 | 2.7 | 24 | 33 | 4039 | 3
O=C(NC1CCCC1)C(c1ccncc1)N(C(=O)c1csnn1)c1ccccc1F (stereo unspecified) | -2 | -16 | 3.1 | 15 | 0 | 5918 | -6

A section from further up, for reference:
SMILES | ugtP null kill | PrP UTR inh | RN4220 kill | Mtb hypoxia inh | Mtb hypoxia inh growth | Bead autofluor | BJeLR viability
Cc1sc2ncnc(OCC(=O)NC(C)C)c2c1C | 8 | -2 | 4.4 | nt | nt | 3560 | -7
COc1ccc(CC(=O)N/N=C(\C)CC(=O)Nc2cccc(F)c2)cc1 | nt | -21 | nt | nt | nt | 5482 | -6
CCCCCN(C(=O)CCC(=O)OCc1ccc(C(C)C)cc1)c1c(N)n(CCCC)c(=O)[nH]c1=O | 1 | -12 | -1.6 | -8 | 0 | 6577 | 1
C/C(CC(=O)Nc1ccc2c(c1)OCCO2)=N\NC(=O)c1ccccc1F | nt | -25 | nt | nt | nt | 4377 | 0

Further structures
SMILES | ugtP null kill | PrP UTR inh | RN4220 kill | Mtb hypoxia inh | Mtb hypoxia inh growth | Bead autofluor | BJeLR viability
O=C(C1CCCCC1)N1CCN(S(=O)(=O)c2ccc(Cl)cc2)CC1 | 6 | -8 | -1.7 | nt | nt | 5896 | 3
Fc1ccc(NC(=S)NCCc2ccccn2)cc1 | 2 | -19 | 4.0 | 10 | 7 | 2506 | -1
O=C(O)c1ccccc1NC(=O)c1cc(-c2ccccc2)nc2ccccc12 | 26 | -7 | 39 | 18 | 17 | 5403 | -7
O=C(Nc1ncn[nH]1)c1ccc(Cl)c(Cl)c1 | 5 | -20 | 1.7 | 0 | -14 | 6532 | nt
COc1ccc(C=c2sc(=CC(=O)c3ccc(C)cc3)[nH]c2=O)c(OC)c1 | 89* | nt | -4.2 | 3 | -4 | nt | nt
Cc1nn(C)cc1CNC(=O)C1CCC(=O)N(CC2CCCCC2)C1 (stereo unspecified) | 9 | 2 | 2.9 | 4 | 1 | 4181 | -5
O=C(NCCc1ccccc1Cl)C1CCC(=O)N(CCCc2ccccc2)C1 (stereo unspecified) | 2 | -20 | -0.4 | -3 | 6 | 5931 | 12
